High-throughput results as filed in PubChem.
NS1 function inh = inhibitors of influenza NS1 protein function; S. cerevisiae slowed by influenza A NS1, growth recovery by OD600; Potency, µM (doses to about 46.1 µM), for the others: at the highest dose activity, positive = more growth; actives 0.4% (n = 270,000); active means well fitted rising curve with a large enough effect; inconclusive means small, poorly fitted or top-dose-only effect; inactive means no such curve, though single readings can be large or run the other way; further: nearly all actives have a fitted effect of over 50% in size
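Read-out: OD600 growth recovery of NS1-expressing budding yeast. Cells grown overnight at 30C in -URA glucose medium, washed, resuspended and diluted 1:100 in 2% galactose assay medium, pH 6.0. Same strain lacking NS1 served as positive control.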
SARS PLpro yeast = SARS-CoV PLP inhibition in yeast | S. cerevisiae expressing SARS-CoV PLpro, growth rescue; control for the full effect not named in the record | Potency, µM (doses to about 32.9 µM), for the others: top-dose activity, positive = growth rescue | actives 0.19% (n = 330,000) | AID 485353; active means well fitted rising curve with a large enough effect; inconclusive means small, poorly fitted or top-dose-only effect; inactive means no such curve, though single readings can be large or run the other way; further: 0% is about no effect; nearly all actives have a fitted effect of over 55% in size; growth read by luminescence after 48 h
Marburg entry inh = Marburg virus entry inhibition; actives 1.8% (n = 300,000); Marburg virus pseudotyped entry inhibition, cell reporter; control for the full effect not named in the record; about a third of the inactives were read at about 46 µM; AID 540276; Potency, µM (series often up to 37.8 µM), for inactives: at the top dose activity change, negative = inhibition, usual class: inhibitors; active = well fitted inhibition curve with a large enough effect; inconclusive = small, poorly fitted or top-dose-only effect, or effect the other way; inactive = flat fitted curve, though single readings scatter; tested in HEK293 cells; about a fifth of its hits are not listed in these tables; further: on the % scale 0 is the no-effect control and ±100 the full control effect; luciferase read-out
LASV entry inh = inhibitors of Lassa virus binding or cell entry; Lassa virus pseudotype entry inhibition, cell reporter; control for the full effect not named in the record; Potency, µM (top dose mostly 37.9 µM), for inactives: at the highest dose activity change, negative = inhibition, hits mostly inhibitors; actives 1.2% (n = 300,000); active means well fitted inhibition curve with a large enough effect; inconclusive means small, poorly fitted or top-dose-only effect, or effect the other way; inactive means flat fitted curve, though single readings scatter; tested in HEK293 cells; further: on the % scale 0 is the no-effect control and ±100 the full control effect; nearly all actives have a fitted effect of over 50% in size; luciferase read-out
Cruzain inh Det = cruzain (T. cruzi) inhibition with detergent | purified cruzain, Z-FR-AMC fluorescence, 0.01% Triton | actives 0.43% (n = 200,000) | Potency, µM, without a hit: max response, negative = inhibition, hits mostly inhibitors;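 further: plate controls were neutral wells for no effect and buffer without enzyme for full effect; nearly all actives have a fitted effect of over 40% in size; top concentration of the series not given in the record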
Target sequence (P25779 123-467 limits assumed): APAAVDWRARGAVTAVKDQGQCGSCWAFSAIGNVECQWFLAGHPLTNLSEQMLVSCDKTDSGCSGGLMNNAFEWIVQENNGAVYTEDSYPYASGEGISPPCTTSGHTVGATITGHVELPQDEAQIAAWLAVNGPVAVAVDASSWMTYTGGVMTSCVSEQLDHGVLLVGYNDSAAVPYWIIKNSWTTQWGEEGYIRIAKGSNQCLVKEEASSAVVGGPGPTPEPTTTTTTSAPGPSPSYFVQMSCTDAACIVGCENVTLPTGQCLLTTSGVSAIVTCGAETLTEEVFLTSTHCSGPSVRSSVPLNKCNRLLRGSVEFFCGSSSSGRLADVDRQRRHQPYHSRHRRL
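In this qHTS format, compounds are incubated with 1.5 nM cruzain for 15 min at room temperature before 2 uM Z-FR-AMC is added. Release of AMC is followed at 360/450 nm, and progress is taken as the 60 s fluorescence difference.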
RE007 growth inh = less growth of the S. pombe RE007 Vpr strain | actives 0.21% (n = 360,000) | Potency, µM (titrated, usually from 92.2 µM), for inactives: at the highest dose activity change, negative = less growth | AID 651644 | S. pombe RE007 Vpr strain, BacTiter-Glo ATP luminescence, 24 h; control for the full effect not named in the record; active = well fitted falling curve with a large enough effect; inconclusive = small, poorly fitted or top-dose-only effect; inactive = no such curve, though single readings can be large or run the other way;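 further: on the % scale 0 is the no-effect control and ±100 the full control effect; nearly all actives have a fitted effect of over 50% in size; the assay follows cell death caused by Vpr and the record does not say whether a fall means rescue or toxicity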
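Fission yeast strain RE007, carrying one chromosomally integrated HIV-1 vpr copy, was seeded at OD 0.01 in PMG+AL medium with 23 nL pinned compound. After 24 h at 30 °C and 99% humidity, viability was read by BacTiter-Glo luminescence.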
Cruzain inh noDet = cruzain (T. cruzi) inhibition without detergent; Potency, µM, inactives show max response, negative = inhibition, most hits filed as inhibitors; purified cruzain, Z-FR-AMC fluorescence, no detergent; P25779; actives 2.3% (n = 200,000);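 further: plate controls were enzyme without inhibitor for no effect and buffer without enzyme for full effect; nearly all actives have a fitted effect of over 40% in size; top concentration of the series not given in the record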
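Detergent-free condition (0.00005% Triton X-100) in acetate buffer pH 5.5 with DTT. 1.5 nM enzyme and compound were pre-mixed 15 min, then 2 uM Z-FR-AMC substrate added; reaction progress from fluorescence change between first and third reads (60 s).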
StopGo reporter = FMDV 2A StopGo reporter, luciferase signal | Potency, µM (highest dose often 57.9 µM), for inactives: top-dose signal change, negative = less light | AID 1159524 | human cells with a luciferase reporter of 2A StopGo recoding; control for the full effect not named in the record | actives 1.2% (n = 410,000); active = well fitted falling curve with a large enough effect; inconclusive = small, poorly fitted or top-dose-only effect; inactive = no such curve, though single readings can be large or run the other way; tested in HEK293T cells; further: on the % scale 0 is the no-effect control and ±100 the full control effect; nearly all actives have a fitted effect of over 45% in size; luciferase light after 4 h
* = called active by the depositor; ? = inconclusive; / = not tested or not shown; [ ] = remark or other dose. Unless noted, the call rests on the fitted dose curve; in most records, active means well fitted curve in the direction sought with a large enough effect; inconclusive means small, poorly fitted or top-dose-only effect, or another doubt; inactive means no such curve, though single readings can be large; an effect the other way counts as inactive or inconclusive. Potency means the concentration at half of the fitted maximal effect.

SMILES	NS1 function inh	SARS PLpro yeast	Marburg entry inh	LASV entry inh	Cruzain inh Det	RE007 growth inh	Cruzain inh noDet	StopGo reporter
CCOC(=O)c1sc(Nc2nc3c(F)cccc3s2)cc1C	15%	-11%	?	-17%	0.8%	-15%	16µM*	28%
O=C1c2oc3ccccc3c(=O)c2C(c2ccc(O)cc2)N1Cc1ccc2c(c1)OCO2 (stereo not given)	/	/	/	-9%[46.1 µM]	2.2%	/	4%	20%
O=C(O)/C=C\C(=O)Nc1ccccc1C(=O)N1CCN(c2ccc(Cl)cc2)CC1	-5%	-1%	0%	6%	0.2%	?	-4%	-22%
CC(C)Cc1cc(-c2ccco2)c(C#N)c(N)n1	2%	1%	-19%	-13%	-2.6%	8%	-19%	14%
COc1cc(NS(=O)(=O)c2ccc(NC(=O)/C(=C/c3ccccc3Cl)NC(=O)c3ccccc3)cc2)nc(OC)n1	27%	11%	17%	0%	-8.5%	1%	-19%	3%
CCCCC(=O)Nc1cccc(NC(=S)NC(C)=O)c1	1%	10%	?	-2%	-2.3%	-5%	13%	2%
CCOC(=O)N1CCN(C(=O)c2ccc3c(c2)N(Cc2cc(C)ccc2C)C(=O)c2ccccc2S3=O)CC1 (stereo not given)	5%	-1%	?	?	1.2%	-1%	?	?
CC(=O)Nc1ccc(NC(=O)c2ccc(COc3ccc(Cl)cc3Cl)o2)cc1	/	/	?	1%[46.1 µM]	-2.8%	/	?	-21%
C#CCOCCOCCOCCNc1nc(N2CCN(C(=O)[C@H](CCC(=O)O)n3cc(C(N)CO)nn3)CC2)nc(N2CCN(C(=O)[C@H](Cc3cc4ccccc4[nH]3)n3cc(C(N)[C@H](C)CC)nn3)CC2)n1 (stereo not given in full)	0%	-1%	/	/	/	-3%	/	4%
Cc1cc(NC(=O)CSc2nc(=O)cc(N)n2-c2ccc(F)cc2)no1	23%	-8%	18%	4%	/	-7%	/	-10%
Cc1ccc(-c2c(C#N)c(N)n3c(nc4ccccc43)c2C#N)cc1	-2%	-24%	?	?	-5.1%	1%	-11%	?
COc1ccccc1NC(=O)C1CCN(c2cnccn2)CC1	/	/	-6%[46.1 µM]	14%[46.1 µM]	-1.1%	/	-22%	-13%
CC(=O)c1cc2ccccc2oc1=O	/	-1%	/	/	-4.6%	-5%	-15%	-9%
Cc1ccc(S(=O)(=O)Oc2ccc(/C=C(/NC(=O)c3ccccc3)C(=O)NCC(=O)O)cc2)cc1	1%	0%	7%[46.1 µM]	2%	/	8%	/	-4%
O=C(Nc1cccc(Cl)c1Cl)C1CCN(c2ncccn2)CC1	9%	18%	-15%	-6%	0.9%	-6%	-17%	-23%
Cc1nc2ccccc2c(C)c1C(=O)c1ccc(F)cc1	-4%	-1%	25%[46.1 µM]	0%	/	6%	/	-2%
COc1ccccc1N(CC(=O)NCCc1ccccc1)C(=O)CCC(=O)Nc1cc(C)ccn1	-18%	-3%	-14%[46.1 µM]	/	/	-1%	/	-5%
Cc1ccc(S(=O)(=O)N2CCCN(C)c3nc4ccccc4nc32)cc1	/	-8%	?	-13%	/	21%	/	-2%
Cc1[nH]n(-c2ccc(Cl)cc2)c(=O)c1N=Nc1cccnc1	7%	-1%	/	/	/	-8%	/	45%[activator]
Cc1ccccc1NC(=S)N(CCc1c(C)[nH]c2ccc(F)cc12)Cc1ccncc1	/	0%	?	/	/	-7%	/	8%
CCOC(=O)c1cc(C)n(Cc2ccccc2)c1C	-46%	0%	4%	0%	-4.3%	-11%	-5%	17%
Cc1ccc(C(C)C)c(OCCN)c1	5%	-3%	?	-22%	3.1%	11%	-10%	-1%
CCCN1Cc2cccc(C(=O)Nc3ccccc3F)c2C1=O	/	/	0%[46.1 µM]	/	-3.4%	/	-7%	-4%
CC(OC(=O)C1=COCCO1)C(=O)Nc1ccc(Cl)cn1 (stereo not given)	/	-1%	1%[46.1 µM]	-4%	/	-3%	/	4%
Cn1c(O)c(C2=NNC(c3ccc(Cl)cc3)C2)c(=O)n(C)c1=O (stereo not given)	4%	0%	-9%[46.1 µM]	-17%	/	19%	/	-9%

(more compounds)
SMILES	NS1 function inh	SARS PLpro yeast	Marburg entry inh	LASV entry inh	Cruzain inh Det	RE007 growth inh	Cruzain inh noDet	StopGo reporter
N#C/C(=N\Nc1ccccc1Cl)C(=O)c1ccccc1	-129%	-12%	?	-1%	-13%	0%	-8%	-5%
Cc1ccc(NC(=O)C2CCC(C(C)(C)C)CC2)cc1S(=O)(=O)N1CCOCC1 (stereo not given)	/	0%	?	?	/	-6%	/	?
O=c1c(Cl)c(NCc2ccc(F)cc2Cl)cnn1C12CC3CC(CC(C3)C1)C2	13%	-19%	1%	8%	-11%	19%	-20%	0%
CCC(C)OC(=O)C1C(c2ccccc2)C(C(=O)O)C1c1ccccc1 (stereo not given)	18%	4%	7%	-1%	2.0%	-7%	1%	-9%
COc1cc(NC(=O)CCN2CCN(C)CC2)cc(OC)c1	6%	7%	-25%	-5%	/	-5%	/	5%
CC(C)NC(=O)/C(=C\c1cccc([N+](=O)[O-])c1)NC(=O)c1ccccc1	?	6%	13%	-25%[14.3 µM]	4.9%	-4%	-8%	-1%
Cc1cccc(C)c1OCc1nc2ccccc2[nH]1	-52%	-35%	?	25%	-2.1%	-25%	-5%	-5%

Some values from the results shown.
Value for CCCCC(=O)Nc1cccc(NC(=S)NC(C)=O)c1 in LASV entry inh: -2%
Value for N#C/C(=N\Nc1ccccc1Cl)C(=O)c1ccccc1 in Cruzain inh Det: -13%

Structures listed so far that contain sulfur:
SMILES	NS1 function inh	SARS PLpro yeast	Marburg entry inh	LASV entry inh	Cruzain inh Det	RE007 growth inh	Cruzain inh noDet	StopGo reporter
CCOC(=O)c1sc(Nc2nc3c(F)cccc3s2)cc1C	15%	-11%	?	-17%	0.8%	-15%	16µM*	28%
COc1cc(NS(=O)(=O)c2ccc(NC(=O)/C(=C/c3ccccc3Cl)NC(=O)c3ccccc3)cc2)nc(OC)n1	27%	11%	17%	0%	-8.5%	1%	-19%	3%
CCCCC(=O)Nc1cccc(NC(=S)NC(C)=O)c1	1%	10%	?	-2%	-2.3%	-5%	13%	2%
CCOC(=O)N1CCN(C(=O)c2ccc3c(c2)N(Cc2cc(C)ccc2C)C(=O)c2ccccc2S3=O)CC1 (stereo not given)	5%	-1%	?	?	1.2%	-1%	?	?
Cc1cc(NC(=O)CSc2nc(=O)cc(N)n2-c2ccc(F)cc2)no1	23%	-8%	18%	4%	/	-7%	/	-10%
Cc1ccc(S(=O)(=O)Oc2ccc(/C=C(/NC(=O)c3ccccc3)C(=O)NCC(=O)O)cc2)cc1	1%	0%	7%[46.1 µM]	2%	/	8%	/	-4%
Cc1ccc(S(=O)(=O)N2CCCN(C)c3nc4ccccc4nc32)cc1	/	-8%	?	-13%	/	21%	/	-2%
Cc1ccccc1NC(=S)N(CCc1c(C)[nH]c2ccc(F)cc12)Cc1ccncc1	/	0%	?	/	/	-7%	/	8%
Cc1ccc(NC(=O)C2CCC(C(C)(C)C)CC2)cc1S(=O)(=O)N1CCOCC1 (stereo not given)	/	0%	?	?	/	-6%	/	?
